Compound activity (PubChem)
BJeLR viability: MLPCN primary cell-based screen for lethality selective to Ras in HRASV12 cells. inhibition, % (concentration not given with the values). hit rate 0.17% among 300,000. BJeLR (HRASV12) viability, CellTiter-Glo ATP luminescence, 48 h; reference of the scale not given here. AID 1554, 2009;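 active means replicate mean above 50%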;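 further: 50 nL library stock added to about 25 µL; numbers are from one replicate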
Mtb hypoxia inh: PubChem AID 1159583 | fluorescence inhibition, % (test concentration not listed) | M. tuberculosis hypoxia-regulated fluorescent reporter, fluorescence | hit rate 0.1% among 300,000;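 active means 35 to 45% if threefold the growth effect, above 45% if 1.5-fold the growth effect; inactive means the rest, general growth blockers included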;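 further: wells of about 50 µL received 100 nL stock; 0% = vehicle wells and 100% = reference inhibitor wells; whole bacteria with a GFP reporter of the hypoxia response; strong numbers were not always called active; many hits fall short of the cut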
RN4220 kill: growth inhibition of S. aureus RN4220, primary screen, OD600; hit rate 0.33% among 330,000; inhibition, % (test concentration not listed); 16 h;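 active means z-score of -3 or lower and OD600 up to 0.18 on both plates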;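 further: plate controls were untreated cells for no effect and reference antibiotic for full effect; stock transfer was 100 nL into about 80 µL; one replicate is shown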
Autofluor counter: counter-screen for toxin protease inhibitors: compound fluorescence. compound autofluorescence counterscreen, microsphere flow cytometry; stronger effect = higher value. fluorescence intensity (test concentration not listed). hit rate 3.1% among 360,000. AID 624483;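 active means at least 3 SD above the mean of all compounds, about 16000 in these data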;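 further: 100 nL of 1 mM stock went into each well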
PrP UTR inh: inhibition of PrP 5' UTR reporter expression; cell-based PrP 5' UTR mRNA reporter, plate reader; hit rate 0.35% among 340,000; inhibition, % (no concentration beside the values);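 active means every replicate at 50% or more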;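 further: 0 = median of the neutral control wells; tested in H4 reporter cells; numbers are from one replicate; inactives centre near -14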
ugtP null kill: growth inhibition of ugtP-null S. aureus, primary screen, RN4220 ugtP deletion, OD600; AID 1259309, 2017; 16 h; some inactives read as strong as hits; hit rate 0.54% among 330,000; growth inhibition, % (concentration not given with the values);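 active means z-score under -3 and OD600 up to 0.15 on both plates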;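 further: plate controls were untreated wells for no effect and antibiotic for full effect; wells of about 80 µL received 100 nL stock; the first replicate is given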
Mtb hypoxia inh growth: second read-out of Mtb hypoxia inh, no call of its own (marks repeat the call); growth inhibition, %; measured here: M. tuberculosis growth (absorbance);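 0% = vehicle and 100% = reference antibiotic; read after six days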
* marks the source's active call; other numbers are inactive results; x = not tested or not shown.

compound,BJeLR viability,Mtb hypoxia inh,Mtb hypoxia inh growth,RN4220 kill,Autofluor counter,PrP UTR inh,ugtP null kill
CCC(OC(=O)CN1C(=O)c2ccccc2C1=O)C(=O)NC1CCCC1 (stereo not given),-5,x,x,x,4855,-24,x
COc1ccc2c(c1)c(N=O)c(O)n2C,6,x,x,-2.0,4622,-5,2
O=C1CCCN1CCCNS(=O)(=O)c1ccccc1,7,4,-4,-0.4,4740,-19,-4
C[C@@H]1CN([C@H](C)CO)C(=O)c2cc(NS(=O)(=O)c3ccc(F)cc3)ccc2O[C@@H]1CN(C)Cc1ccc(Cl)c(Cl)c1,x,2,5,-0.5,3009,-30,6
O=C(Cn1c(C(=O)O)cc2ccccc21)c1ccccc1,0,-2,7,-1.4,3713,-11,-1
CN1CCN(C(=O)c2cnn(-c3ccccc3)c2NC(=O)c2ccc(Br)cc2)CC1,12,10,5,6.4,4494,2,12
OCCN1CCN(c2nc(-c3ccccc3)nc3c2oc2ccccc23)CC1,0,22,8,12,3286,-13,-18
O=C(Nc1cccc(S(=O)(=O)N2CCCCCC2)c1)c1cncc(Br)c1,x,13,11,8.4,3745,-7,7
COCCCN(C(=O)c1cc2c(s1)CCCCC2)c1c(N)n(Cc2ccccc2)c(=O)[nH]c1=O,-9,-3,-6,5.5,4284,-10,12
CC(c1ccco1)N(C(=O)c1ccc(S(=O)(=O)N2CCCCC2)cc1)c1ccccn1 (stereo not given),-15,7,5,5.2,4277,-15,10
CNC(=O)c1sc(SC)cc1-c1ccc(Cl)cc1,8,x,x,1.3,2150,-14,-6
O=C(CCC(=O)Nc1ccc(Br)cc1)N/N=C/c1cc([N+](=O)[O-])ccc1O,-11,x,x,x,2279,-6,x
CN(CC(=O)NNC(=O)c1cccnc1)S(=O)(=O)c1cc(Cl)ccc1Cl,2,11,-1,3.8,2691,-19,-1
COc1ccc2c(c1)c(C(C)=O)c(C)n2-c1ccccc1,5,11,15,5.1,9484,-23,10
CCC1CCCN1Cn1cnc2c([nH]c3ccccc32)c1=O (stereo not given),-21,0,2,-14,2673,-9,2
Cc1ccc(C2(C(F)(F)F)NC(=O)N3CCCN=C3S2)cc1 (stereo not given),-3,6,6,1.3,8142,-12,-4
O=C1NC(=O)C2C1C(c1ccccc1)N1C3C(=O)NC(=O)C3C(c3ccccc3)N21 (stereo not given),6,3,2,-0.8,4852,-7,5
Cc1ccc(N2C(=O)c3cccc4c(N5CCN(C)CC5)ccc(c34)C2=O)c2cccnc12,1,12,4,0.0,x,x,0
CCc1cc(=O)n2[nH]c(C)c(-c3ccccc3OC)c2n1,-4,-8,-5,-0.4,4311,-12,-4
CC1Nc2ccccc2C(=O)N1NC(=O)c1ccc(Br)cc1 (stereo not given),12,9,10,5.3,4562,-19,4
CCOC(=O)C1(CCCc2ccccc2)CCN(C(=O)CCn2cnnn2)CC1,0,11,0,8.0,5007,-2,1
CC(=O)CSc1ncnc2sc3c(c12)CCC(C)C3 (stereo not given),3,1,5,2.8,2552,-10,8
CCCOC(=O)NC(CC)COC(=O)Nc1cccc(C)c1C (stereo not given),6,11,10,-14,2821,-25,-5
CC(C)c1nnc(NC(=O)c2ccc(S(=O)(=O)N3CCOCC3)cc2)s1,-4,1,13,-7.6,5266,-6,0

A different layout for 3 compounds above.
Structure: CCC(OC(=O)CN1C(=O)c2ccccc2C1=O)C(=O)NC1CCCC1 (stereo not given)
  BJeLR viability: -5	Mtb hypoxia inh: x	Mtb hypoxia inh growth: x	RN4220 kill: x	Autofluor counter: 4855	PrP UTR inh: -24	ugtP null kill: x
Structure: COc1ccc2c(c1)c(N=O)c(O)n2C
  BJeLR viability: 6	Mtb hypoxia inh: x	Mtb hypoxia inh growth: x	RN4220 kill: -2.0	Autofluor counter: 4622	PrP UTR inh: -5	ugtP null kill: 2
Structure: O=C1CCCN1CCCNS(=O)(=O)c1ccccc1
  BJeLR viability: 7	Mtb hypoxia inh: 4	Mtb hypoxia inh growth: -4	RN4220 kill: -0.4	Autofluor counter: 4740	PrP UTR inh: -19	ugtP null kill: -4

(list continues)
compound,BJeLR viability,Mtb hypoxia inh,Mtb hypoxia inh growth,RN4220 kill,Autofluor counter,PrP UTR inh,ugtP null kill
CCC(=NCC1CCCO1)c1c(O)[nH]c(=O)[nH]c1=O (stereo not given),1,4,8,2.6,2854,-13,9
O=C(CN1CCCCC1)c1ccccc1F,x,-1,7,2.3,3346,-7,4
CC1(C)CC(=O)C(C=Nc2cccnc2)=C(O)C1,0,11,-13,3.6,6966,-4,4
COc1ccccc1/C=N/OCC(=O)NCc1ccc2c(c1)OCO2,1,x,x,x,1901,-16,x
CCOC(=O)C1CCCN(C(=O)C(C)(C)Oc2ccc(Cl)cc2)C1 (stereo not given),-3,-6,9,-2.9,4457,-8,-1
CCOC(=O)Cc1csc(N/N=C/c2ccc(C(F)(F)F)cc2)n1,-4,x,x,x,2215,34,x
COc1cc(CNCCN2CCOCC2)ccc1OCc1ccccc1Cl,4,2,10,5.6,3309,-9,1
CC(NC(=O)/C(=C\c1ccco1)NC(=O)c1ccco1)C(=O)O (stereo not given),3,12,5,6.5,3508,-21,6
O=C(NN=Cc1cc2c(cc1Br)OCO2)c1ccccn1,x,22,13,11,x,x,5
Cc1cc(C(=O)COC(=O)c2ccc(O)cc2O)c(C)n1-c1ccccc1,x,5,3,6.1,3379,-17,5
COc1ccc(CN2CC(C(=O)NCCc3ccc(Cl)cc3)CC2=O)cc1 (stereo not given),1,4,0,3.3,4587,-22,10
O=C(COC(=O)CCCOc1ccc(Cl)cc1Cl)NCc1ccccc1,-2,4,1,5.0,11464,-12,-4

Following part:
Short forms: A = BJeLR viability; B = Mtb hypoxia inh; C = Mtb hypoxia inh growth; D = RN4220 kill; E = Autofluor counter; F = PrP UTR inh; G = ugtP null kill
> CC(=O)c1cc(F)c(N2CCN(CCC#N)CC2)cc1C
  A: 5 | B: 12 | C: 8 | D: -8.9 | E: 3390 | F: -16 | G: -4

> Cn1nc(C(=O)Nc2cccc(C(F)(F)F)c2)ccc1=O
  A: x | B: x | C: x | D: -2.9 | E: 3823 | F: -14 | G: 3

> CC1(CCc2ccccc2)NC(=O)N(CC(=O)Nc2ccc(OC(F)F)cc2)C1=O (stereo not given)
  A: x | B: 11 | C: 21 | D: -5.0 | E: 8511 | F: -6 | G: 1

> Cc1cc(C)c[n+](CC(=O)c2cc3ccccc3oc2=O)c1
  A: 4 | B: 7 | C: 8 | D: 2.7 | E: 2348 | F: -8 | G: 6

> Cc1ccccc1OC(C)C(=O)NCCC1=CCCCC1 (stereo not given)
  A: -8 | B: 6 | C: 6 | D: 7.1 | E: 6521 | F: -39 | G: 0

> Nc1c(Cl)nc(-c2ccccc2)nc1Cl
  A: -7 | B: x | C: x | D: x | E: 4178 | F: -15 | G: x

> Cn1ncc2c(=O)n(/N=C/c3ccccc3)cnc21
  A: -1 | B: x | C: x | D: x | E: 2575 | F: -9 | G: x

> CN1C(=O)Cc2cc(S(=O)(=O)NCc3c(F)cccc3Cl)ccc21
  A: -16 | B: -5 | C: -6 | D: 6.2 | E: 3118 | F: -14 | G: 8

> O=C(/C=C/c1ccc2c(c1)OCO2)NCC1CCCO1 (stereo not given)
  A: 10 | B: 0 | C: 10 | D: 4.1 | E: 4497 | F: -41 | G: 12

> CCOc1ccc(N2CC(C(=O)NCCN3C(=O)S/C(=C\c4ccc(OC)c(OC)c4)C3=O)CC2=O)cc1 (stereo not given)
  A: -2 | B: -2 | C: -1 | D: 2.6 | E: 2632 | F: -26 | G: -1

> Cc1ccccc1C(=O)N=c1c(C#N)cc2c(=O)n3cccc(C)c3nc2n1Cc1ccco1
  A: 5 | B: -4 | C: 5 | D: -2.6 | E: x | F: x | G: -10

> CC(C)(C)C1=CC(=O)C(=O)C(C(C)(C)C)=C1
  A: 28 | B: -10 | C: -13 | D: -10 | E: 2462 | F: -11 | G: -7

> CC(c1ccccc1)N1C(=O)c2ccccc2C1(O)Cc1ccccc1 (stereo not given)
  A: 6 | B: 3 | C: -2 | D: 7.2 | E: 4827 | F: -5 | G: 3

> CCN(CC)S(=O)(=O)c1ccc2c(c1)c(=O)c(C(=O)NCCc1ccc(OC)c(OC)c1)cn2C
  A: 18 | B: -1 | C: -8 | D: 1.1 | E: 3995 | F: -17 | G: 0

> Cc1[nH]nc2c1C(c1cccc(OC(=O)N3CCOCC3)c1)C(C#N)=C(N)O2 (stereo not given)
  A: -7 | B: x | C: x | D: 2.2 | E: 2447 | F: -10 | G: 1

> CCOC(=O)[C@@H](C)N(Cc1ccc(OC)cc1)S(=O)(=O)N(Cc1ccccc1)[C@H](C(=O)OC)C(C)C
  A: x | B: 10 | C: 0 | D: -9.3 | E: 4180 | F: -17 | G: 1

> O=C(NN=C/C=C/c1ccc([N+](=O)[O-])cc1)C1COc2ccccc2O1 (stereo not given)
  A: x | B: 6 | C: 5 | D: 0.5 | E: x | F: x | G: -3

> CN(NC(=O)Nc1ccc(Cl)cc1)c1ncc(C(F)(F)F)cc1Cl
  A: 11 | B: 5 | C: 14 | D: -11 | E: 10022 | F: -18 | G: -42

> COCCCNC(=O)C1CCC(CNS(=O)(=O)c2ccc(Cl)cc2)CC1 (stereo not given)
  A: 15 | B: 9 | C: 21 | D: 5.8 | E: 4392 | F: -6 | G: 4

> O=c1[nH][nH]c(-c2ccccc2O)c1C(C[N+](=O)[O-])c1ccc(Cl)cc1Cl (stereo not given)
  A: -17 | B: 4 | C: 0 | D: 6.2 | E: 7029 | F: -26 | G: -7

> COc1cc(NC(=O)c2noc3c2CCCC3)c(OC)cc1Cl
  A: 2 | B: -4 | C: 4 | D: -2.1 | E: 10798 | F: -32 | G: -3

> COc1ccc(OC)c(NC(=O)CSc2nnc(C3CCCCC3)n2-c2ccccc2)c1
  A: 1 | B: x | C: x | D: -4.2 | E: 3389 | F: -8 | G: 20

> COc1ccc(NS(=O)(=O)c2cccc(C(=O)N/N=C/c3cn(-c4ccccc4)nc3-c3ccc(OC)cc3)c2)cc1
  A: 2 | B: x | C: x | D: x | E: 5180 | F: -34 | G: x

> CSc1ncc2ncn(C3OC(CO)C(O)C3O)c2n1 (stereo not given)
  A: 6 | B: 3 | C: -2 | D: 0.0 | E: 4937 | F: -5 | G: 8

A different layout for part of the listing above.
Cc1ccc(N2C(=O)c3cccc4c(N5CCN(C)CC5)ccc(c34)C2=O)c2cccnc12
  BJeLR viability: 1
  Mtb hypoxia inh: 12
  Mtb hypoxia inh growth: 4
  RN4220 kill: 0.0
  Autofluor counter: x
  PrP UTR inh: x
  ugtP null kill: 0

Cn1nc(C(=O)Nc2cccc(C(F)(F)F)c2)ccc1=O
  BJeLR viability: x
  Mtb hypoxia inh: x
  Mtb hypoxia inh growth: x
  RN4220 kill: -2.9
  Autofluor counter: 3823
  PrP UTR inh: -14
  ugtP null kill: 3
